Ecoli rRNA inh: inhibitors of bacterial rRNA selective over humanized ribosomes; E. coli WT GFP vs humanized-ribosome RFP mutants, fluorescence, 24 h; stronger effect = lower value; DMSO median 0, no signal -100; hit rate 1.6% among 350,000; GFP signal change (wild-type ribosome), % (test concentration not listed);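 active = significant combined selectivity score with lowered wild-type GFP, culture density cut under 30%, mutant RFP and density less affected; inactive = any of these conditions unmet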; note: one replicate is shown; some compounds called inactive have numbers as strong as hits
Ecoli rRNA inh OD600: second read-out of Ecoli rRNA inh, no call of its own (marks repeat the call); OD600 change, %; measured here: OD600 growth;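 optical density of the mix in the first replicate; 0 = DMSO median and -100 = no signal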
Ecoli rRNA inh RFP: further read-out of Ecoli rRNA inh, marked with its call; RFP signal change, %; measured here: RFP humanized mutant strains;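 first replicate; 0 = DMSO median and -100 = no signal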
* marks the source's active call; other numbers are inactive results; & = joins results of further samples.

Each structure is followed by: Ecoli rRNA inh	Ecoli rRNA inh OD600	Ecoli rRNA inh RFP
- C[C@@H]1CN([C@H](C)CO)C(=O)c2cc(NC(=O)Nc3ccc(C(F)(F)F)cc3)ccc2O[C@@H]1CN(C)S(C)(=O)=O
    -4	-26	13
- C[C@H](CO)N1C[C@H](C)[C@@H](CN(C)C)Oc2ccc(NS(=O)(=O)c3cn(C)cn3)cc2CC1=O
    1	-4	-1.5
- C[C@H](CO)N1C[C@H](C)[C@H](CN(C)Cc2ccc(-c3ccccc3)cc2)Oc2c(NS(=O)(=O)c3cccs3)cccc2C1=O
    1	0	-1.7
- COCCNC(=O)C[C@@H]1C[C@@H]2c3cc(NC(=O)CC4CC4)ccc3O[C@@H]2[C@@H](CO)O1
    3	3	0.8
- Cc1ccccc1-c1ccc([C@@H]2[C@@H](CO)N3CCCCN(C(=O)NC4CCCC4)C[C@H]23)cc1
    -59	-73	-12
- C[C@@H]1CN([C@H](C)CO)C(=O)c2cc(-c3ccc(F)cc3)cnc2O[C@@H]1CN(C)Cc1ccccn1
    -1	-3	0.5
- CN(C)c1ccc2c(c1)[C@@H]1C[C@@H](CC(=O)N3CCc4ccccc4C3)O[C@H](CO)[C@@H]1O2
    0	1	3.6
- CCOC(=O)N1CCN(C(=O)C[C@H]2C[C@@]3(C(=O)OC)C(=C[C@H](C(C)C)O[C@@H]3C3CC3)N(Cc3ccccc3)C2=O)CC1
    7	2	0.1
- C[C@@H]1CN([C@@H](C)CO)C(=O)c2cc(C#CC3(O)CCCC3)cnc2O[C@H]1CN(C)C(=O)C1CCCCC1
    -4	0	1.3
- C[C@H](O)C#Cc1ccc2c(c1)O[C@@H](CN(C)C(=O)c1ccncc1)[C@@H](C)CN([C@H](C)CO)S2(=O)=O
    2	4	-2.5
- COc1ccc(C(C)(NC(C)=O)c2nc(-c3cc(F)cc(F)c3)cs2)cc1 (stereo unspecified)
    -10	-60	7.2
- COCc1cn(CC[C@H]2CC[C@H](NC(=O)Nc3ccccc3)[C@@H](CO)O2)nn1
    -4	-11	0.0
- O=S(=O)(NC1CCCC1)c1ccc(F)cc1F
    12	16	2.8
- CCCNC(=O)N1C[C@@H](C)[C@H](OC)CN(C)C(=O)c2ccc(NS(C)(=O)=O)cc2OC[C@@H]1C
    4	1	-0.1
- CCc1nc2ccc(C(=O)NCCc3c[nH]c4ccccc34)cn2c1N(C=O)CCC(C)C
    -15	-34	3.0
- C[C@H](CO)N1C[C@H](C)[C@@H](CN(C)C(=O)NC2CCCCC2)Oc2ccc(NS(=O)(=O)c3cccs3)cc2CC1=O
    2	-2	1.7
- CC(C)c1ccc(CC(=O)N2CCC2(C)C(=O)Nc2ccc3c(c2)OCO3)cc1 (stereo unspecified)
    -6	-25	4.1
- CC(C(=O)NC1CCCC1)n1c(C2CC2)nc2ccccc21 (stereo unspecified)
    7	10	-6.4
- CN(C)C(=O)C[C@@H]1C[C@H]2c3cc(NC(=O)CC4CC4)ccc3O[C@H]2[C@H](CO)O1
    3	7	0.4
- O=C(CCN1CCCCC1)NCC[C@@H]1CC[C@@H](NC(=O)C2CCC2)[C@@H](CO)O1
    0	-1	-2.3
- C/C=C/c1cnc2c(c1)C(=O)N([C@@H](C)CO)C[C@@H](C)[C@H](CN(C)C(=O)Cc1ccccc1)O2
    1	-2	-3.3
- C[C@H]1CCCCO[C@H](CN(C)CC2CCCCC2)[C@@H](C)CN([C@@H](C)CO)C(=O)c2cc(NC(=O)Cc3ccccc3)ccc2O1
    3	-3	2.6
- CO[C@@H]1CN(C)C(=O)c2ccc(NS(=O)(=O)c3ccccc3C)cc2OC[C@@H](C)NC[C@@H]1C
    0	0	-0.7
- Cc1cnc(CNC(=O)c2ccc3sc([C@@H]4O[C@H](CO)[C@H](O)[C@H](O)[C@H]4O)nc3c2)cn1
    -3	4	1.5
- C[C@H]1CN([C@@H](C)CO)C(=O)Cc2cc(NC(=O)CCCCCC(=O)Nc3ccccc3N)ccc2O[C@@H]1CN(C)S(=O)(=O)c1cn(C)cn1
    3	0	-0.5
- Cc1ccnc(NS(=O)(=O)c2ccc(NC(=O)c3cccc(Cl)c3)cc2)n1
    -2	5	-1.7
- COc1ccccc1CNC(=O)C[C@@H]1C[C@@H]2c3cc(NS(C)(=O)=O)ccc3O[C@@H]2[C@H](CO)O1
    3	6	-0.4
- C[C@H](CO)N1C[C@H](C)[C@H](CN(C)C(=O)C2CCCCC2)Oc2cc(C#C[C@@H](C)O)ccc2S1(=O)=O
    -4	-2	1.1
- N#C[C@H]1[C@@H](c2ccc(/C=C/c3ccccc3)cc2)[C@@H](CO)N1C(=O)C1CCCC1
    -1	-2	-2.9
- Cc1ccc(S(=O)(=O)NCCc2nnc3ccc(N4CCOCC4)nn23)cc1
    5	7	1.3
- CCCN1C[C@H](C)[C@@H](OC)CN(C)C(=O)c2cc(NC(=O)COC)ccc2OC[C@@H]1C
    -1	0	2.2
- COc1ccccc1NC(=O)N[C@H]1CC[C@@H](CCn2cc(-c3ccccc3OC)nn2)O[C@@H]1CO
    2	-2	0.6
- C[C@@H]1CN([C@H](C)CO)C(=O)CCCn2cc(nn2)CO[C@@H]1CN(C)S(=O)(=O)c1ccc(F)cc1
    1	5	0.2
- C[C@@H]1CN([C@@H](C)CO)C(=O)c2cc(C#C[C@@H](C)O)cnc2O[C@@H]1CN(C)C(=O)Nc1ccc(F)cc1
    6	24	-4.4
- C[C@@H]1CCCCO[C@@H](CN(C)C(=O)Nc2ccc3c(c2)OCO3)[C@@H](C)CN([C@H](C)CO)C(=O)c2cc(NC(=O)CCCN(C)C)ccc2O1
    2	9	-0.9
- COc1ccccc1-c1ccc2c(c1)O[C@H](CN(C)S(=O)(=O)c1ccc(F)cc1)[C@@H](C)CN([C@@H](C)CO)S2(=O)=O
    -2	0	-3.6
- C[C@@H]1CN([C@H](C)CO)C(=O)c2cc(NC(=O)Nc3ccc(C(F)(F)F)cc3)ccc2O[C@H]1CN(C)Cc1ccc(C(F)(F)F)cc1
    -1	11	-0.5
- O=C(C[C@@H]1C[C@@H]2c3cc(NC(=O)c4cccnc4)ccc3O[C@@H]2[C@@H](CO)O1)NCc1ccc(Oc2ccccc2)cc1
    -9	-20	2.7
- O=C(CC(F)(F)F)N1C[C@@H]2[C@H](c3ccccc31)[C@H](CO)N2C(=O)C1CCCC1
    -3	7	-3.3
- CCCNC(=O)C[C@H]1C[C@@H]2c3cc(N(C)C)ccc3O[C@@H]2[C@@H](CO)O1
    5	8	2.1

3 compounds picked at random from those above:
Each structure is followed by: Ecoli rRNA inh	Ecoli rRNA inh OD600	Ecoli rRNA inh RFP
- C[C@@H]1CN([C@H](C)CO)C(=O)c2cc(NC(=O)Nc3ccc(C(F)(F)F)cc3)ccc2O[C@H]1CN(C)Cc1ccc(C(F)(F)F)cc1
    -1	11	-0.5
- COc1ccccc1NC(=O)N[C@H]1CC[C@@H](CCn2cc(-c3ccccc3OC)nn2)O[C@@H]1CO
    2	-2	0.6
- CCCNC(=O)C[C@H]1C[C@@H]2c3cc(N(C)C)ccc3O[C@@H]2[C@@H](CO)O1
    5	8	2.1

(cont.)
Each structure is followed by: Ecoli rRNA inh	Ecoli rRNA inh OD600	Ecoli rRNA inh RFP
- O=C(C1CCCCC1)N1CC(=O)N2[C@H](CO)[C@@H](c3ccc(-c4cccnc4)cc3)[C@H]2C1
    4	6	-2.7
- CC(C)[C@@H](CO)NC(=O)[C@H]1O[C@@H](n2cnc3c(N)ncnc32)[C@H](O)[C@@H]1O
    1	-1	-2.0
- CCC(=O)Nc1ccc2c(c1)C(=O)N(C)C[C@H](OC)[C@H](C)CN(C(=O)c1ccc(F)cc1)[C@@H](C)CO2
    -1	4	-2.6
- COCc1[nH]nc2c1C(c1ccc(Br)cc1)N(Cc1ccccc1)C2=O (stereo unspecified)
    -20	-56	-12
- O=C1[C@H]2[C@@H](c3ccc(C(F)(F)F)cc3)N[C@]3(CCCN(CC4CCCCC4)C3=O)[C@H]2C(=O)N1Cc1ccccc1
    2	-2	2.3
- C[C@@H]1CN([C@@H](C)CO)C(=O)c2cc(NC(=O)C3CCCCC3)ccc2O[C@@H]1CN(C)S(=O)(=O)c1ccccc1
    -1	-3	1.8
- O=C(CNC(=O)N1CC(=O)Nc2ccccc21)Nc1ccc(Br)cc1F
    8	1	-5.2
- CN(C)C(=O)c1cccc(-c2ccccc2[C@@H]2[C@@H](C#N)N(C(=O)C3CC3)[C@@H]2CO)c1
    6	7	0.4
- CC(C)NC(=O)N1CCCCN2[C@H](CO)[C@@H](c3ccc(C#Cc4ccccc4F)cc3)[C@@H]2C1
    -57	-74	-5.5
- O=C(C[C@@H]1C[C@H]2c3cc(NC(=O)Nc4ccccc4)ccc3O[C@H]2[C@@H](CO)O1)NCC(F)(F)F
    2	-1	-3.3
- CC(C)C#Cc1ccc2c(c1)O[C@@H](CN(C)C(=O)c1ccccc1)[C@H](C)CN([C@H](C)CO)S2(=O)=O
    -5	-30	15
- O=C(C[C@@H]1CC[C@H](NC(=O)Nc2ccc(C(F)(F)F)cc2)[C@@H](CO)O1)NCCN1CCCC1
    0	0	0.2
- COc1ccc(NC(=O)COC(=O)Cc2cccs2)cc1Cl
    -6	-5	-2.2
- CN(C)c1ccc2c(c1)[C@@H]1C[C@@H](CC(=O)NCc3ccccc3F)O[C@@H](CO)[C@@H]1O2
    -2	14	0.0
- COc1cccc(C(C)(O)c2nc(-c3ccc(S(C)(=O)=O)cc3)cs2)c1 (stereo unspecified)
    -5	-7	0.9
- C[C@@H]1CN([C@@H](C)CO)C(=O)CCCn2cc(nn2)CO[C@@H]1CN(C)Cc1cccc(C(=O)O)c1
    1	3	-1.6
- C[C@@H]1CN([C@H](C)CO)C(=O)c2cc(-c3ccccc3)cnc2O[C@@H]1CN(C)CC1CC1
    6	8	0.8
- O=C(C[C@@H]1C=C[C@@H](NS(=O)(=O)c2ccccc2)[C@H](CO)O1)NCc1ccncn1
    3	-4	2.1
- C[C@H]1CN([C@@H](C)CO)C(=O)c2ccccc2-c2ccccc2CO[C@H]1CN(C)C(=O)NC1CCCCC1
    3	4	19
- COc1ccc(S(=O)(=O)N(C)C[C@H]2Oc3c(NC(=O)NC(C)C)cccc3C(=O)N([C@H](C)CO)C[C@H]2C)cc1
    -3	1	-0.7
- COc1cccc(S(=O)(=O)Nc2ccc3c(c2)[C@@H]2C[C@@H](CC(=O)NC4CCCCC4)O[C@H](CO)[C@@H]2O3)c1
    -2	-6	-0.8
- Cc1ccc(-c2cc3nc(C)cc(N4CCN(C(=O)c5ccoc5)CC4)n3n2)cc1
    3	-16	-0.1
- Cc1noc(C)c1NC(=O)N(C)C[C@H]1OCCCC[C@@H](C)Oc2ccc(NS(C)(=O)=O)cc2C(=O)N([C@H](C)CO)C[C@@H]1C
    1	12	-2.6
- Cc1ccc(S(=O)(=O)NC(=O)C2(C)CCN2C(=O)c2ccccc2)nc1 (stereo unspecified)
    8	16	5.5
- CCCNC(=O)C[C@@H]1CC[C@H]2[C@@H](COC[C@@H](O)CN2C(=O)Nc2cccc(Cl)c2)O1
    -57	-74	-21
- CCC(=O)Nc1ccc2c(c1)OC[C@H](C)N(C(=O)CC)C[C@H](C)[C@H](OC)CN(C)C2=O
    3	8	-0.1
- C[C@H](CO)N1C[C@H](C)[C@H](CN(C)CC2CCCCC2)OCCCC[C@H](C)Oc2ccc(NC(=O)Nc3cccc4ccccc34)cc2C1=O
    -21	-40	11
- C[C@@H]1CN([C@@H](C)CO)C(=O)c2cc(C#CC3CCCCC3)cnc2O[C@@H]1CN(C)C(=O)c1ccncc1
    8	2	1.2
- O=C(Nc1ccccc1F)N1CC(=O)N2[C@@H](CO)[C@H](c3ccc(C#Cc4ccc(F)cc4)cc3)[C@@H]2C1
    -5	-42	23
- OC[C@@H]1[C@@H](c2ccc(C#CC3(O)CCCC3)cc2)[C@@H]2CN(Cc3cncnc3)CCCCN12
    4	12	-5.8
- OCCNc1ncnc2c1ncn2[C@H]1CN(Cc2ccc(Cl)cc2)C[C@@H](CO)O1
    9	13	-1.2
- COCC#Cc1ccc2c(c1)O[C@@H](CN(C)C(=O)Nc1ccc(OC)cc1)[C@H](C)CN([C@H](C)CO)S2(=O)=O
    0&-6	9&-5	-0.4&0.8
- Cc1cc(C(=O)Nc2ccc3c(c2)C(=O)N(C)[C@H]2CC[C@@H](CC(=O)NCc4ccc(-c5ccccc5)cc4)O[C@@H]2CO3)no1
    4	-9	-1.7
- COc1ccc(NC(=O)N(C)C[C@@H]2Oc3ccc(NS(C)(=O)=O)cc3C(=O)N([C@H](C)CO)C[C@@H]2C)cc1
    -5	0	-3.7

Ordered by length of the SMILES (ascending): six of the compounds above.
Each structure is followed by: Ecoli rRNA inh	Ecoli rRNA inh OD600	Ecoli rRNA inh RFP
- Cc1ccc(S(=O)(=O)NC(=O)C2(C)CCN2C(=O)c2ccccc2)nc1 (stereo unspecified)
    8	16	5.5
- Cc1ccc(-c2cc3nc(C)cc(N4CCN(C(=O)c5ccoc5)CC4)n3n2)cc1
    3	-16	-0.1
- OCCNc1ncnc2c1ncn2[C@H]1CN(Cc2ccc(Cl)cc2)C[C@@H](CO)O1
    9	13	-1.2
- CCC(=O)Nc1ccc2c(c1)OC[C@H](C)N(C(=O)CC)C[C@H](C)[C@H](OC)CN(C)C2=O
    3	8	-0.1
- O=C(Nc1ccccc1F)N1CC(=O)N2[C@@H](CO)[C@H](c3ccc(C#Cc4ccc(F)cc4)cc3)[C@@H]2C1
    -5	-42	23
- COc1ccc(NC(=O)N(C)C[C@@H]2Oc3ccc(NS(C)(=O)=O)cc3C(=O)N([C@H](C)CO)C[C@@H]2C)cc1
    -5	0	-3.7

Another view of some results above:
| structure | Ecoli rRNA inh | Ecoli rRNA inh OD600 | Ecoli rRNA inh RFP |
| --- | --- | --- | --- |
| C[C@H](CO)N1C[C@H](C)[C@H](CN(C)CC2CCCCC2)OCCCC[C@H](C)Oc2ccc(NC(=O)Nc3cccc4ccccc34)cc2C1=O | -21 | -40 | 11 |
| CCC(=O)Nc1ccc2c(c1)OC[C@H](C)N(C(=O)CC)C[C@H](C)[C@H](OC)CN(C)C2=O | 3 | 8 | -0.1 |

Assay outcomes deposited in PubChem by Broad Institute.

This is a subset; rates above refer to the full screens.
